StopGo FLuc: FMDV 2A StopGo reporter, firefly signal | HEK cells with a luciferase reporter of 2A StopGo recoding | Potency, µM (doses to about 57.5 µM), inactives show top-dose signal change, negative = less light | actives 0.23% (n = 120,000) | AID 1745856; active = well fitted falling curve with a large enough effect; inconclusive = small, poorly fitted or top-dose-only effect; inactive = no such curve, though single readings can be large or run the other way; further: nearly all actives have a fitted effect of over 60% in size; overnight with compound
2A Renilla: FMDV 2A StopGo reporter, Renilla signal; HEK cells with a luciferase reporter of 2A StopGo recoding; Potency, µM (series often up to 57.5 µM), for inactives: top-dose signal change, negative = less light; actives 0.32% (n = 120,000); AID 1745857; active means well fitted falling curve with a large enough effect; inconclusive means small, poorly fitted or top-dose-only effect; inactive means no such curve, though single readings can be large or run the other way; further: nearly all actives have a fitted effect of over 55% in size; overnight with compound
Active calls of the source: *; ? = inconclusive; [ ] = dose if it differs, or a comment. On the % scale 0 is the no-effect control and ±100 the full control effect; potency means the concentration at half of the fitted maximal effect.

The line under a structure holds: StopGo FLuc | 2A Renilla
#1 CC(c1nc(-c2cccc(C(F)(F)F)c2)no1)N1CCN(C(=O)Nc2cccc(C#N)c2)CC1 (stereo unspecified)
    ? | ?
#2 CCc1ccc(C(=O)Nc2ccc(O)c(-c3nc4ccccc4o3)c2)cc1
    0% | -6%
#3 O=C(CCCCn1c(=O)c2ccccc2n(Cc2ccccc2Cl)c1=O)NCc1ccc2c(c1)OCO2
    -10% | -7%
#4 CC(C)CCNC(=O)C(Cc1ccccc1)NC(N)=O (stereo unspecified)
    -9% | 7%
#5 COc1ccc(CN2CCC(N3CCN(c4ccccc4OC)CC3)CC2)cc1OC
    6% | 4%
#6 CCCN(CCC)CCNC(=O)c1ccc2c(c1)NC(=O)C(CS(=O)(=O)Cc1cccc(Br)c1)N2 (stereo unspecified)
    -16% | ?
#7 O=C(Nc1c(N2CCCC2)c2ccccc2oc1=O)C1CC(=O)N(c2ccccc2)C1 (stereo unspecified)
    30% | 27%
#8 O=C(Nc1ccccc1F)c1cc(-c2ccco2)nc2ccccc12
    8% | 1%
#9 Cc1ccc(-c2nc(CCNC(=O)C(=O)Nc3ccc(C)c(C)c3)cs2)cc1
    -3% | -11%
#10 O=C(NCc1ccccn1)Nc1ccc(N2CCOCC2)nc1
    28% | -16%
#11 COc1cccc(CN(C)c2nc3ccccc3nc2NS(=O)(=O)c2ccccc2)c1
    68%[activator] | 84%[activator]
#12 CCCS(=O)(=O)N1CC(=O)N(c2cccc(Cl)c2C)C(C)(C(=O)NC2CCCC2)C1 (stereo unspecified)
    -12% | 11%
#13 CCn1cc(C(=O)c2cc(F)ccc2O)cc1-c1nc2ccccc2c(=O)[nH]1
    2% | 1%
#14 COc1cc(C(=O)NCc2nnnn2-c2ccc(C)c(C)c2)cc(OC)c1OC
    -3% | -4%
#15 CC(=O)Oc1ccc(-c2nc3cc(Cl)ccc3o2)cc1
    -14% | ?

Part of the list above, reformatted.
3	O=C(CCCCn1c(=O)c2ccccc2n(Cc2ccccc2Cl)c1=O)NCc1ccc2c(c1)OCO2
4	CC(C)CCNC(=O)C(Cc1ccccc1)NC(N)=O (stereo unspecified)
5	COc1ccc(CN2CCC(N3CCN(c4ccccc4OC)CC3)CC2)cc1OC
6	CCCN(CCC)CCNC(=O)c1ccc2c(c1)NC(=O)C(CS(=O)(=O)Cc1cccc(Br)c1)N2 (stereo unspecified)
7	O=C(Nc1c(N2CCCC2)c2ccccc2oc1=O)C1CC(=O)N(c2ccccc2)C1 (stereo unspecified)

Screen / compound no. | 3 | 4 | 5 | 6 | 7
StopGo FLuc | -10% | -9% | 6% | -16% | 30%
2A Renilla | -7% | 7% | 4% | ? | 27%

Continued:
The line under a structure holds: StopGo FLuc | 2A Renilla
#16 O=C(c1csc(Br)c1)N(Cc1ccncc1)C1CC1
    3% | 25%
#17 O=C(Cn1ccc2cc(S(=O)(=O)N3CCCCC3)ccc21)NC1CCCC1
    4% | 69%[activator]
#18 CCCCCCOc1ccc(/C=C/c2nc(-c3ccc(C)cc3)cs2)cc1
    1% | -7%
#19 CCOC(=O)c1sc(NC(=O)COc2ccccc2Cl)c(C(=O)OCC)c1C
    77%[activator] | 6%
#20 COc1ccc(C(NC(=O)c2csc(-c3ccco3)n2)c2nccn2C)cc1 (stereo unspecified)
    -1% | -5%
#21 C=C(C)Cn1c(N2CCNCC2)nc2c1c(=O)[nH]c(=O)n2C
    -3% | ?
#22 Cc1cn2c(=O)cc(COC(=O)COc3ccc(F)cc3)nc2s1
    -18% | -5%
#23 Clc1ccc(-c2noc(-c3cc(-c4ccco4)n[nH]3)n2)cc1
    3% | -14%
#24 Cc1c(C(=O)OC(C)C#N)oc2ccc(Cl)cc12 (stereo unspecified)
    -1% | 1%
#25 CCOc1ccc(CNC(=O)c2ccc(-c3nc(CS(=O)(=O)c4ccccc4)c(C)o3)cc2)cc1
    22% | 44%[activator]
#26 Cc1cc(C)cc(NC(=O)C(=O)NCC(c2cccnc2)N2CCOCC2)c1 (stereo unspecified)
    2% | 0%
#27 COc1cc(C)cc2oc(=O)c(CC(=O)Nc3cccc(Cl)c3)c(C)c12
    -5% | -6%
#28 CCOC(=O)c1ccc(Nc2cc(C)nc3ccccc23)cc1
    7% | 10%
#29 Nc1ccc(Sc2ccc3ccccc3c2Cl)c(Cl)c1
    68%[activator] | 0%
#30 CC(C(=O)Nc1cccc(Cl)c1)N1CCN(C(=O)C2CC2)CC1 (stereo unspecified)
    14% | 5%
#31 CCCCn1c(=O)c2oc3ccccc3c2n(CC(=O)Nc2ccccc2OC)c1=O
    -10% | -8%
#32 COc1cccc(/C=C/c2nc(C#N)c(NCCCN3CCOCC3)o2)c1
    22% | 3%
#33 CCN(CC)c1ccc(C(=O)NCc2ccc3c(c2)CCN3C(C)=O)cc1
    22% | 16%
#34 N#Cc1ccc(OCC(O)CSc2ccc(O)cc2)cc1 (stereo unspecified)
    0% | 76%[activator]
#35 COc1ccc2cc(C(=O)Nc3cc(C)ccn3)c(C)nc2c1
    142%[activator] | -3%
#36 COc1ccc(N(CC(=O)N2CCN(c3ccccc3)CC2)S(=O)(=O)c2c(C)nn(C)c2C)cc1
    -3% | -5%
#37 COc1ccc(C(CCOC(=O)Oc2ccccc2)c2cc(OC)cc(OC)c2)cc1 (stereo unspecified)
    42%[activator] | 55%[activator]
#38 Cc1cccc(NC(=O)CN2CCN(CC(=O)c3cc(C)n(CCc4cccs4)c3C)CC2)c1C
    -3% | 1%
#39 O=C(Nc1ccc(C(F)(F)F)cc1)C1CC=CCC1 (stereo unspecified)
    156%[activator] | 31%[activator]
#40 COc1ccc(NC(=O)CSc2nnc(-c3ccncc3)n2-c2ccccc2)cc1
    -24% | -16%
#41 COc1ccccc1CNc1nc2ccc(C)cc2n2nnnc12
    -3% | -25%
#42 COc1cc2nc(SCC(=O)Nc3cccc(C)c3)n3nc(CCn4c(C)nc5ccccc54)nc3c2cc1OC
    5% | 0%
#43 Cc1cc(COc2ccc(C(=O)c3ccccc3)cc2)no1
    117%[activator] | 1%
#44 Cc1cccc(NC(=O)c2oc3ccccc3c2NC(=O)c2cc(=O)c3ccccc3o2)c1
    -16% | -11%
#45 Cc1nn(-c2ccc(F)cc2)c(-n2cccc2)c1C(=O)NCCCN1CCN(c2ccccc2F)CC1
    -2% | -4%
#46 Cc1cccc(C)c1NS(=O)(=O)c1c(C)[nH]c(C)c1C(=O)N1CCCCC1
    -5% | 159%[activator]
#47 Cn1c(CNc2ccccc2)c(C#N)c2ccccc21
    19% | 9%
#48 COc1cc(NC(=O)Cn2c(=O)nc(-c3ccccc3F)c3cc(Cl)ccc32)cc(OC)c1
    ? | 3%
#49 COc1cc(NC(=O)C2CCN(S(=O)(=O)c3c(C)noc3/C=C/c3cccs3)CC2)cc(OC)c1
    -19% | -13%
#50 Cc1oc(-c2ccc(OC(C)C)cc2)nc1CSc1nc2c(c(=O)[nH]1)CCC2
    29% | 10%
#51 N#CC1=C(N)OC2=C(C(=O)CC(c3ccccc3Cl)C2)C1c1ccc(Cl)cc1 (stereo unspecified)
    -1% | 10%
#52 CCCn1cc(S(=O)(=O)c2ccccc2)c(=O)c2cc(F)c(F)cc21
    -4% | 16%
#53 COc1ccc(NC(=O)Cn2c(-n3nc(C)cc3C)nc(C)cc2=O)cc1
    27% | 19%
#54 COc1ccc(-c2noc(CN3CCCC(C(=O)Nc4ccc(C)cc4)C3)n2)cc1OC (stereo unspecified)
    ? | ?
#55 CS(=O)(=O)N(CC(=O)NCCc1ccccc1)c1cc(C(F)(F)F)ccc1Cl
    -23% | 36%[activator]
#56 COc1ccc(-n2cc(C(=O)NCc3ccccc3)c3ccccc3c2=O)cc1
    -11% | -11%
#57 CCCn1c(=N)c(C(=O)NCc2cccnc2)cc2c(=O)n3ccccc3nc21
    -6% | -5%
#58 CCn1c(=O)n(CC)c2cc(S(=O)(=O)c3ccccc3)c(NC(=O)COc3ccccc3C)cc21
    -5% | 7%
#59 O=[N+]([O-])c1ccccc1S(=O)(=O)Nc1ccc(Nc2ccccc2)cc1
    19% | 115%[activator]
#60 COc1ccc(C)cc1Nc1nc2c(S(=O)(=O)c3cccc(Cl)c3)nnn2c2ccsc12
    1% | -14%

Exported in transposed form: entries from further up
51. N#CC1=C(N)OC2=C(C(=O)CC(c3ccccc3Cl)C2)C1c1ccc(Cl)cc1 (stereo unspecified)
52. CCCn1cc(S(=O)(=O)c2ccccc2)c(=O)c2cc(F)c(F)cc21
53. COc1ccc(NC(=O)Cn2c(-n3nc(C)cc3C)nc(C)cc2=O)cc1

assay / entry | 51 | 52 | 53
StopGo FLuc | -1% | -4% | 27%
2A Renilla | 10% | 16% | 19%

More compounds follow.
The line under a structure holds: StopGo FLuc | 2A Renilla
#61 CCCS(=O)(=O)c1c(S(=O)(=O)CCC)c2cc(C(C)(C)C)ccn2c1C(=O)c1ccc(C)cc1
    -4% | -1%
#62 O=C(/C=C/c1ccccc1Br)c1ccc(O)c(CCCl)c1
    170%[activator] | 38%[activator]
#63 CCOc1ccc(NC(=O)CSc2nc3c([nH]c4ccccc43)c(=O)n2-c2cc(C)cc(C)c2)cc1
    ? | ?
#64 CCOc1ccc(C(=O)Nc2cccc(-c3nc4cccnc4s3)c2C)cc1OCC
    -14% | -12%
#65 O=C(COc1ccc(F)cc1)Nc1ccc2oc(-c3ccc(F)cc3)nc2c1
    133%[activator] | -4%
#66 CNc1nnc(SCc2nnc(-c3ccccc3Br)o2)s1
    96%[activator] | 21%
#67 Cc1cccc(NC(=O)CSC2=C(C#N)C(c3ccccc3C)C3=C(CCCC3=O)N2)c1 (stereo unspecified)
    ? | ?
#68 CCOC(=O)c1cnc2c(OC)cccc2c1N1CCN(c2ccccc2F)CC1
    0% | -20%
#69 COc1ccc(C(=O)c2sc(Nc3ccccc3F)nc2N)cc1
    256%[activator] | 30%[activator]
#70 O=C1c2ccccc2NC(c2csc(-c3ccccc3)n2)N1C1CC1 (stereo unspecified)
    43%[activator] | 26%
#71 Cc1nn(S(=O)(=O)c2ccc(Cl)cc2)c(C)c1S(=O)(=O)N1CCCCCC1
    -10% | -1%
#72 Cc1ccc(OCCSc2nc3ccccc3n2CC(=O)N2CCOCC2)cc1
    27% | 11%
#73 COc1ccc(CC(=O)N2N=C(c3cccc(Br)c3)CC2(O)C(F)(F)F)cc1 (stereo unspecified)
    -18% | -5%
#74 COCCNC(=O)c1ccc2nc(CCc3ccccc3)oc2c1
    44%[activator] | -4%
#75 Cc1ccccc1C1/C(=C(\O)c2ccccc2F)C(=O)C(=O)N1c1ccc(CC(=O)O)cc1 (stereo unspecified)
    -8% | -2%

Single records, from the list above. Screens in order: StopGo FLuc	2A Renilla
Cc1nn(S(=O)(=O)c2ccc(Cl)cc2)c(C)c1S(=O)(=O)N1CCCCCC1 is entered as -10%	-1%
CCOC(=O)c1cnc2c(OC)cccc2c1N1CCN(c2ccccc2F)CC1 is entered as 0%	-20%

Other structures:
The line under a structure holds: StopGo FLuc | 2A Renilla
#76 Cc1nc(NC(=O)c2cccc(OCc3ccccc3)c2)ccc1Br
    0% | -7%
#77 CN(C)S(=O)(=O)c1cccc(NC(=O)COC(=O)c2cc(=O)c3ccccc3o2)c1
    13% | -4%
#78 COc1cccc2cc(-c3nc4sc(C(=O)Nc5ccc(F)cc5F)c(C)c4c(=O)[nH]3)c(=O)oc12
    0% | -10%
#79 Cc1nn(-c2ccc(N3CCCC3)nn2)c(C)c1CCC(=O)NCc1ccc(F)cc1
    4% | 9%
#80 Cc1oc2ncnc(N3CCCCC3)c2c1C(=O)N1CCN(c2cccc(C(F)(F)F)c2)CC1
    -19% | -21%
#81 Cc1nc2ccc(C(=O)NCC3CN(Cc4ccccc4)CCO3)cc2nc1C (stereo unspecified)
    20% | -2%
#82 CCC(C)[C@H](NC(=O)[C@@H]1Cc2ccccc2CN1)C(=O)Nc1ccc(C)cc1 (stereo partly specified)
    53%[activator] | -4%
#83 O=C(CN1CCC2(CC1)OCCO2)Nc1cccc(F)c1
    20% | -3%
#84 CC(C)(C)OC(=O)N1CCC(C(=O)N2CCN(Cc3cccs3)CC2)CC1
    3% | -3%
#85 N#Cc1cccc(NC(=O)c2sc3nc4c(cc3c2N)N2CCC4CC2)c1
    113%[activator] | 9%
#86 Cc1cccc(CCNC(=O)CN(c2ccc(C(C)C)cc2)S(=O)(=O)c2c(C)nn(C)c2C)c1
    13% | -10%
#87 COc1cccc(C2CC(N)C2)c1 (stereo unspecified)
    4% | -12%
#88 COC(=O)C1=C(C)N(C)C(C)=C(C(=O)OC)C1c1ccccc1C(F)(F)F
    -1% | -14%
#89 CCOc1ccc(CNC(=O)c2ccc(NC(=O)c3nnc(C)s3)cc2)cc1OC
    6% | -4%
#90 C/C(=N/Nc1ccc(S(=O)(=O)Nc2ccc(C)cc2C)cc1[N+](=O)[O-])c1ccc(Cl)s1
    7% | 27%
#91 Cc1ccc(-n2c(SCc3cccc(C)c3)nc3c(=O)[nH]cnc32)cc1
    19% | 24%
#92 CC(NC(=O)[C@H]1O[C@@H]2OC(C)(C)O[C@@H]2[C@H]2OC(C)(C)O[C@H]21)C(=O)O (stereo partly specified)
    5% | 3%
#93 CCCc1ccc(OCC(=O)Nc2scc(-c3cccs3)c2C(=O)OC)cc1
    -7% | -12%
#94 COc1cccc(CNC(=O)C2CCCN(c3nc4ccccc4n4cccc34)C2)c1 (stereo unspecified)
    -14% | -9%
#95 Cc1ccc2oc(C(=O)Nc3sc4c(c3C(=O)NCC3CCCO3)CCC4)cc(=O)c2c1 (stereo unspecified)
    -11% | -12%
#96 CCCNC(=O)NC(=O)CN1CCCC1
    15% | 15%
#97 Cc1cc(OC(C)C(=O)N2CCN(CCc3ccccn3)CC2)ccc1Cl (stereo unspecified)
    -23% | -10%

Assay outcomes as filed in PubChem BioAssay.

A portion of the library; the hit share may differ from the screen's.
